Mtb hypoxia rep = Mtb hypoxia fluorescent reporter inhibition. M. tuberculosis hypoxia-regulated fluorescent reporter, fluorescence. fluorescence inhibition, % (test concentration not listed). 0.1% of 300,000 active;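 active = 35 to 45% if threefold the growth effect, above 45% if 1.5-fold the growth effect; inactive = the rest, general growth blockers included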;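 note: wells of about 50 µL received 100 nL stock; 0% = vehicle wells and 100% = reference inhibitor wells; whole bacteria with a GFP reporter of the hypoxia response; strong numbers were not always called active; many hits fall short of the cut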
Autofluor counter = compound fluorescence in toxin protease inhibitor counterscreen; compound autofluorescence counterscreen, microsphere flow cytometry; stronger effect = higher value; fluorescence intensity (concentration not given with the values); 3.1% of 360,000 active; AID 624483;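 active = at least 3 SD above the mean of all compounds, about 16000 in these data; inconclusive = too few beads counted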;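 note: 100 nL of 1 mM stock went into each well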
Sa ugtP lethal = compounds lethal to S. aureus RN4220 ugtP deletion mutant. 0.54% of 330,000 active. growth inhibition, % (test concentration not listed). OD600 growth, 16 h; some inactives read as strong as hits;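 active = z-score under -3 and OD600 up to 0.15 on both plates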;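 note: plate controls were untreated wells for no effect and antibiotic for full effect; wells of about 80 µL received 100 nL stock; the first replicate is given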
Sa RN4220 lethal = kills Staphylococcus aureus RN4220 | inhibition, % (concentration not given with the values) | 0.33% of 330,000 active | S. aureus RN4220 growth, OD600, 16 h;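 active = z-score of -3 or lower and OD600 up to 0.18 on both plates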;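 note: plate controls were untreated cells for no effect and reference antibiotic for full effect; stock transfer was 100 nL into about 80 µL; one replicate is shown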
PrP UTR inh = suppresses PrP 5' UTR mRNA reporter expression; cell-based PrP 5' UTR mRNA reporter, plate reader; inhibition, % (concentration not given with the values); 0.35% of 340,000 active; AID 488862;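 active = every replicate at 50% or more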;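 note: 0 = median of the neutral control wells; tested in H4 reporter cells; numbers are from one replicate; inactives centre near -14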
BJeLR lethal = kills HRASV12-expressing BJeLR cells; AID 1554; 0.17% of 300,000 active; BJeLR (HRASV12) viability, CellTiter-Glo ATP luminescence, 48 h; reference of the scale not given here; inhibition, % (no concentration beside the values);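 active = replicate mean above 50%; inconclusive = above 50% but judged a plate artefact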;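 note: 50 nL library stock added to about 25 µL; numbers are from one replicate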
Mtb hypoxia rep growth = also measured in Mtb hypoxia rep; calls as there; growth inhibition, %; measured here: M. tuberculosis growth (absorbance);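 0% = vehicle and 100% = reference antibiotic; read after six days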
* = called active by the depositor; ? = inconclusive; nt = not tested or not shown; & = joins results of further samples; ! = a repeat was not active.

SMILES | Mtb hypoxia rep | Mtb hypoxia rep growth | Autofluor counter | Sa ugtP lethal | Sa RN4220 lethal | PrP UTR inh | BJeLR lethal
O=C(/C=C/c1ccccc1Cl)Nc1cccnc1 | 7 | 7 | 3124 | 1 | 2.7 | -38 | -2
COc1cc(OC)cc(-c2c(-c3ccc(F)cc3)c3cc(-c4ccc(SC)cc4)ccc3n2C)c1 | 24 | -3 | 4018 | -3 | 0.7 | -8 | nt
O=C(Cn1cc2c(n1)CCCC2)NCCCN1CCN(Cc2ccccc2)CC1 | nt | nt | 5859 | 5 | -2.5 | -9 | -12
COc1ccc(/C=N/Nc2nncc3ccccc23)c(OC)c1 | nt | nt | 2344 | nt | nt | -55 | -9
COc1cccc(NC(=O)C(C)N2C(=O)c3ccccc3S2(=O)=O)c1 (stereo not drawn) | 7 | 4 | 5453 | 5 | 4.5 | -3 | 3
C#CCNc1cc(C)nc2ncnn12 | -1 | 1 | 24731* | -3 | -1.5 | -9 | nt
Cc1ccc(C(CCNC(C)c2cccs2)c2ccco2)cc1 (stereo not drawn) | 1 | -4 | 4723 | -12 | -3.1 | -14 | 1
O=C1CNC(=O)/C1=C\N1CCN(C(c2ccccc2)c2ccccc2)CC1 | nt | nt | 4957 | 10 | -3.8 | -5 | -4
CC1(C)C(c2ccccc2)=[N+]([O-])CN1O | 9 | 11 | 9792 | 1 | 2.8 | -45 | 7
Cc1ccc(C2Nc3ccccc3NC3=C2C(=O)OC(C)C3)cc1 (stereo not drawn) | 7 | 14 | 2117 | -1 | 3.0 | -18 | -13
CC(C)Cc1nc(SCC(=O)N2CCCC2)c2c(=O)n(C)c(=O)n(C)c2n1 | 4 | 11 | 5762 | 3 | 0.2 | -16 | -9
Cc1cccc(C(=O)NC(=S)Nc2ccc(Cc3ccncc3)cc2)c1 | 17 | 14 | 3680 | 79 | -0.6 | -6 | 3
Cc1ccc(S(=O)(=O)NNC(=O)C(=O)NNc2ccccn2)cc1 | 0 | 7 | 3154 | 0 | 9.1 | -20 | 4
CC[C@@]12C(=O)N(c3cccc(C)c3)C(=O)N1C(c1ccc(OC)cc1)C1C(=O)N(C(C)(C)C)C(=O)C12 (stereo partly drawn) | 3 | -3 | nt | -1 | 5.8 | nt | nt
CSc1nnc(SCC(=O)Nc2ccc3[nH]c(=O)[nH]c3c2)s1 | 4 | 0 | ? | 6 | 2.8 | -10 | nt
CCOc1nc(NC2CCCC2)nc(N2CCC(C)CC2)n1 | 2 | -5 | 3442 | 1 | 3.7 | -25 | -6
COc1ccc(NC(=O)Nc2cccnc2)cc1 | -2 | 5 | 4174 | 1 | 3.3 | -21 | 1
COc1ccc(OC)c(NC(=O)CN(c2ccc(C)cc2)S(=O)(=O)c2c(C)n[nH]c2C)c1 | 2 | 10 | 5230 | -8 | 0.9 | -3 | 7
COc1cccc(NC(=O)Nc2ccc3nc(C)c(C)nc3c2)c1 | nt | nt | 4226 | nt | nt | -15 | 6
CCCCCNC(=O)C1c2ccccc2Oc2ccccc21 | 18 | 3 | 5152 | 6 | 0.8 | -6 | -3
Cc1csc(SCC(=O)NC(=O)c2ccccc2)n1 | 11 | 5 | nt | 3 | 3.9 | -22 | 2
CCOc1ccccc1NC(=S)NCc1cccn1C | 5 | -1 | 4466 | 3 | 0.5 | -25 | -12
COC(=O)c1c(NC(=O)CSc2nc3ccccc3c(=O)n2Cc2ccco2)sc(C)c1C | 5 | 4 | 2077 | 12 | 0.2 | -14 | 4
Cc1nc2c(o1)CCc1ccccc1C2O (stereo not drawn) | 9 | 4 | 10129 | 5 | 3.0 | -32 | -6
O=C(CSc1ccccn1)Nc1nc2ccccc2s1 | 3 | 10 | 2623 | 5 | 4.8 | -27 | -16
Cc1cccc(NC(=O)c2cnc3sccn3c2=O)c1C | 10 | 6 | 4137 | 18 | 4.1 | nt | 1
CCOc1c(CNCc2ccc(C(=O)O)cc2)cccc1OC | 1 | 9 | 4769 | 5 | 2.4 | -7 | -8
O=C(c1cc(-c2ccc(Br)cc2)nc2ccccc12)N1CCC1 | 4 | 4 | 4507 | -5 | -7.3 | -2 | -2
Cc1cc(C)c2c(-c3ccc(F)cc3)c(C#N)c(=O)n(C)c2n1 | -11 | -4 | 3587 | -14 | 2.3 | -22 | 5
Cc1cccc(N=Nc2c(N)n[nH]c2N)c1 | 3 | -2 | 3766 | -3 | 3.3 | -17 | -8
O=C(CCCC(=O)c1ccc(F)cc1)c1ccc(F)cc1 | 23 | 13 | 3856 | -2 | 4.5 | -37 | -9
CSc1nc(NC(C)(C)C)nc(Oc2ccc(=O)[nH]n2)n1 | 5 | 8 | 19465* | 0 | 2.0 | -25 | 3
Cc1n[nH]c(=O)c2c(NC(=O)COC(=O)/C=C/c3cccc(C(F)(F)F)c3)oc(C)c12 | 7 | 1 | 6037 | 0 | 2.4 | -7 | 3
O=C(Cn1nnc(-c2ccccc2)n1)NN=Cc1cc([N+](=O)[O-])ccc1O | 1 | 1 | nt | 39 | 72 | nt | nt
COc1ccc2ccccc2c1/C=N/O | nt | nt | 3792 | nt | nt | -10 | 0
CCC(=O)c1ccccc1OCCCn1cncn1 | 14 | 2 | 3601 | 5 | 1.8 | -7 | 4
CCOc1c(C)cc(-c2ncccc2O)cc1C | 2&-9 | 7&4 | 22538*! | 1&-5 | -1.3&-1.2 | -3&-25 | 11&0
COCCCn1c(SCC(=O)N2CCc3ccccc32)nnc1-c1ccco1 | 10 | 11 | 8985 | 5 | 6.7 | -10 | 4
CN(C)C(=O)NC1CCCCCCCCCCC1 | 12 | 2 | 2845 | 5 | 4.4 | -11 | 15
COC(=O)c1ccc(C)c(NC(=O)C(CCSC)NC(=O)c2cc(OC)c(OC)c(OC)c2)c1 (stereo not drawn) | 2 | 2 | 3174 | 8 | 0.2 | -18 | -3
CC(=NNC(=O)CSc1nnc(C)s1)c1ccc(Cl)cc1 | 10 | 2 | nt | 0 | 3.1 | nt | nt
CCOc1ccc(NC(=O)CSc2nnc(CNC(=O)c3ccco3)o2)cc1 | 8 | 4 | 2272 | 7 | 0.0 | -17 | -2
COc1ccccc1NC(=O)CSc1nc(O)cc(=O)n1-c1ccccc1OC | 5 | 5 | 8160 | 10 | 0.8 | 6 | -1
Cc1c(C(=O)OC(C)C)sc(NC(=O)c2cnccn2)c1C(=O)OC(C)C | -8 | 6 | 3520 | -12 | -0.4 | nt | nt
O=[N+]([O-])c1cc(Cl)c(Cl)cc1Cl | 10 | 12 | 5916 | 0 | 1.6 | -1 | nt
O=P1(Nc2ccc(F)cc2)COc2ccccc2OC1 | 5 | -2 | 16060 | 3 | 0.2 | -27 | 5
CN1CCN(C(=O)C2=C[C@H](c3ccccc3)C[C@H](OCc3ccc(CO)cc3)O2)CC1 | nt | nt | 3587 | nt | nt | -8 | 0
Cc1cc(-c2n[nH]c(=S)n2/N=C/c2ccc(Br)s2)n[nH]1 | nt | nt | 2081 | nt | nt | -17 | -10
COC(=O)C1=C(c2ccc(OC(F)(F)F)cc2)CC2CCC1N2C(=O)NCCO (stereo not drawn) | 2 | 1 | nt | 2 | 6.7 | nt | nt
O=C(CSc1ccccn1)Nc1nc2c(ccc3ccccc32)s1 | 0 | 6 | 2393 | -5 | 5.8 | -21 | 6
CCC(=O)Nc1ccc(C(=O)NNC(=O)c2cccc(C)c2)cc1 | 12 | -2 | 4105 | -1 | 0.6 | -19 | 6
O=C(CCN1C(=O)/C(=C/c2ccc3c(c2)OCO3)SC1=S)Nc1ccccc1 | -8 | 0 | 2299 | -7 | 10 | -11 | -8
CCOc1ccc(Cl)cc1CSc1n[nH]c(CC)n1 | 3 | 12 | 22875* | 4 | 2.8 | 5 | 0
O=C(Oc1ccc(N(Cc2cccs2)C2=NS(=O)(=O)c3ccccc32)cc1)c1ccccc1 | 1 | -7 | 23485* | 4 | -2.5 | -13 | -5
Cc1ccc(OCC(=O)NC2CCCCCC2)cc1C | -3 | 6 | 5213 | -2 | -0.6 | -38 | -1
O=C(NCC1(c2ccccc2)CCCC1)C(=O)N1CCOCC1 | -4 | -5 | 6621 | -2 | -5.2 | -14 | 0
COc1ccc(N/N=C(/C#N)S(=O)(=O)C(C)(C)C)cc1 | nt | nt | 4565 | nt | nt | -3 | -5
Cc1cccc(OCCSc2nncn2C)c1 | -3 | 1 | 4165 | 6 | 9.4 | -27 | 2
O=S(=O)(c1ccc2c(c1)OCCO2)N1CCN(S(=O)(=O)c2ccccn2)CC1 | 9 | 15 | 3925 | -1 | 1.6 | -2 | nt
C=CCOc1c(Br)cc(CNc2ccc(NC(=O)C(C)C)c(OC)c2)cc1OC | 16 | 3 | 20313* | -5 | 1.6 | -19 | -7

Quoted from the listing (11 entries):
SMILES | Mtb hypoxia rep | Mtb hypoxia rep growth | Autofluor counter | Sa ugtP lethal | Sa RN4220 lethal | PrP UTR inh | BJeLR lethal
O=C(CSc1ccccn1)Nc1nc2c(ccc3ccccc32)s1 | 0 | 6 | 2393 | -5 | 5.8 | -21 | 6
CCC(=O)Nc1ccc(C(=O)NNC(=O)c2cccc(C)c2)cc1 | 12 | -2 | 4105 | -1 | 0.6 | -19 | 6
O=C(CCN1C(=O)/C(=C/c2ccc3c(c2)OCO3)SC1=S)Nc1ccccc1 | -8 | 0 | 2299 | -7 | 10 | -11 | -8
CCOc1ccc(Cl)cc1CSc1n[nH]c(CC)n1 | 3 | 12 | 22875* | 4 | 2.8 | 5 | 0
O=C(Oc1ccc(N(Cc2cccs2)C2=NS(=O)(=O)c3ccccc32)cc1)c1ccccc1 | 1 | -7 | 23485* | 4 | -2.5 | -13 | -5
Cc1ccc(OCC(=O)NC2CCCCCC2)cc1C | -3 | 6 | 5213 | -2 | -0.6 | -38 | -1
O=C(NCC1(c2ccccc2)CCCC1)C(=O)N1CCOCC1 | -4 | -5 | 6621 | -2 | -5.2 | -14 | 0
COc1ccc(N/N=C(/C#N)S(=O)(=O)C(C)(C)C)cc1 | nt | nt | 4565 | nt | nt | -3 | -5
Cc1cccc(OCCSc2nncn2C)c1 | -3 | 1 | 4165 | 6 | 9.4 | -27 | 2
O=S(=O)(c1ccc2c(c1)OCCO2)N1CCN(S(=O)(=O)c2ccccn2)CC1 | 9 | 15 | 3925 | -1 | 1.6 | -2 | nt
C=CCOc1c(Br)cc(CNc2ccc(NC(=O)C(C)C)c(OC)c2)cc1OC | 16 | 3 | 20313* | -5 | 1.6 | -19 | -7

Other entries:
SMILES | Mtb hypoxia rep | Mtb hypoxia rep growth | Autofluor counter | Sa ugtP lethal | Sa RN4220 lethal | PrP UTR inh | BJeLR lethal
CCCn1c(SCC(=O)NCCc2ccccc2)nnc1C(C)C | 14 | 0 | 4806 | 4 | 1.3 | -18 | -3
COc1ccccc1NS(=O)(=O)c1cc(NC(=O)Nc2ccc(Cl)cc2Cl)ccc1N1CCCCC1 | -2 | 0 | 10606 | -13 | 2.0 | -17 | -14
COC(=O)[C@]1(C)N[C@H](CN(C)C(=O)Nc2ccc(F)cc2)[C@@H]2C(=O)N(C)C(=O)[C@@H]21 | 1 | -1 | 3878 | 0 | 1.0 | -10 | nt
O=C(NN=Cc1cccnc1)c1cccc(NC(=O)c2ccc(Cl)cc2)c1 | 2 | 5 | nt | 4 | 0.5 | nt | nt
CC(C)Oc1ccc(CCNC(=O)C2CCC(=O)N(C3CCCCCC3)C2)cc1 (stereo not drawn) | 9 | 9 | 5830 | 12 | -2.0 | -7 | 8
COCCCNC(=O)COc1ccc2oc3c(c2c1)CCCC3 | 13 | 7 | 3702 | 0 | 2.4 | -27 | 3
O=C(CN1C(=O)c2ccccc2S1(=O)=O)Nc1ncccn1 | 2 | 2 | 5363 | 6 | 3.7 | -7 | -11
COc1ccc(N/N=C(\C#N)C(=N)SCc2ccccc2)cc1 | nt | nt | 5694 | nt | nt | -14 | 6
CN(NC1OC(=O)c2ccccc21)c1c([N+](=O)[O-])cc(C(F)(F)F)cc1[N+](=O)[O-] (stereo not drawn) | 16 | 16 | 3952 | -10 | 1.3 | -16 | -6
Cn1c(C=O)c(-c2ccc3cc[nH]c3c2)c2ccccc21 | 9 | 8 | 3911 | -10 | -14 | -3 | nt
O=C(NCCc1ccccc1)C(=O)NCC1OCCCN1S(=O)(=O)c1ccc(F)cc1 (stereo not drawn) | 16 | 8 | 5276 | 11 | 3.1 | -21 | -19

Bioassay records deposited in PubChem by several laboratories.
